HCMV UL50-53 inh: disrupts HCMV UL50-UL53 complex binding | AID 1918969 | HTRF UL50-UL53 interaction, normalized percent inhibition | inhibition, % (concentration not given with the values) | actives 0.15% (n = 190,000);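 active = both replicates at 50% or more, plus weaker picks with an unusually low signal ratio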;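 note: stock transfer was 100 nL into about 20 µL; 0% = negative control wells and 100% = wells with untagged competitor protein; inactives centre near -12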
Sa growth 42C: inhibitors of Staphylococcus aureus growth at 42 °C; S. aureus RN4220 growth, OD600, 20 h; active compounds read low; relative growth, % (concentration not given with the values); actives 0.53% (n = 170,000); AID 720641;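 active = growth at 42 °C up to 50% and 20 or more points under that at 30 °C, or under 10% at both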;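 note: 300 nL library stock went into each well; scaled to the means of positive and negative controls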
GIV-Gai inh: GIV-Galpha-i interaction inhibition; actives 0.42% (n = 210,000); percent of control (FP), % (no concentration beside the values); Galpha-i3/FITC-GIV peptide fluorescence polarization, 90 min; active compounds read low; scaled: aluminum fluoride 0%, vehicle 100%; AID 1224905; P08753;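 active = replicate mean at 85% of control or lower, very high polarization wells dropped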;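 note: wells of about 15 µL received 100 nL stock; the first replicate is given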
Target sequence (P08753 whole entry, looked up): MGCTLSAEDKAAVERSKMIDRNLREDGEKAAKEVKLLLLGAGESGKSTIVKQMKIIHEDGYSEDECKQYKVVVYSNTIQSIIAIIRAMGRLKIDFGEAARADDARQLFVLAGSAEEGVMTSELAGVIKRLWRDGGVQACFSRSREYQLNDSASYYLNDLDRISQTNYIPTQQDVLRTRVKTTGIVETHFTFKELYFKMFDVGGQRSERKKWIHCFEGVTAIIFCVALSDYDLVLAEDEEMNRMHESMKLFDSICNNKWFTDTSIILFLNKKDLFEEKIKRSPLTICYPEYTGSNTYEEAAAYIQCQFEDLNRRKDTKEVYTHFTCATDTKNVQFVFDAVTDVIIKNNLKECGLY
Sa growth 42C second temp: further read-out of Sa growth 42C, marked with its call; relative growth, %; measured here: growth at 30 °C;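 optical density after 20 h as mean of two plates; 100% = untreated growth and lower means inhibition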
* = called active by the depositor; x = not tested or not shown; & = joins results of further samples.

cpd	Structure	Sa growth 42C	GIV-Gai inh	Sa growth 42C second temp	HCMV UL50-53 inh
1	Cc1ccc(C)c(NC(=O)CN2CCN(C3CCCCC3)C(=O)C2=O)c1	104	101	92	x
2	CCS(=O)(=O)c1nc(S(=O)(=O)c2ccc(C)cc2)c(NCCCOC)s1	107	102	92	-7
3	C=CCNC(=O)c1cc(C)nc2ccccc12	99	x	86	-16
4	Cc1ccc(S(=O)(=O)NC2c3ccccc3Oc3ccccc32)cc1	101	106	88	x
5	N#Cc1c(F)cccc1NCCc1ccc(Cl)cc1	92	97	93	3
6	Nc1cccc(CCc2cccnc2)c1	69	105	103	1
7	CCOC(=O)c1c(C)[nH]c(C)c1S(=O)(=O)N1CCCC(C(=O)N2CCN(c3cc(C)ccc3C)CC2)C1 (stereo not given)	35	103	29	x
8	COc1cc(Cl)c(NS(=O)(=O)c2ccc3c(c2)CC(C)N3C(=O)C2CCC2)c(OC)c1 (stereo not given)	124	103	102	x
9	O=S(=O)(NCC(c1ccco1)S(=O)(=O)c1ccccc1)c1ccccc1 (stereo not given)	107&101	101&104	94&74	-24
10	Cc1ccc(C(=O)OC2=C(c3ccccc3)C(=O)c3ccccc3C2=O)cc1	78	102	61	x
11	CC1SCC(NC(=O)c2ccc(Cl)cc2)CS1 (stereo not given)	101	105	99	-4
12	CCOC(=O)c1ccc(NC(=O)CSc2c(C(C)C)cnc3c2c(=O)n(C)c(=O)n3C)cc1	88	110	95	x
13	Cc1ccc(Cc2nn3c(C(=O)c4cccs4)nn(-c4ccc(Cl)cc4)c3nc2=O)cc1	95	106	86	-38
14	CN(C)c1ccc(/C=C/C(=O)/C=C/c2ccco2)cc1	109	6.8*	70	13
15	O=C(NC1CCN(C(=O)c2c(Cl)cccc2Cl)CC1)c1ccccc1	94	105	86	-11
16	CC(=O)Nc1nc(C)c(CCC(C)C)c(=O)[nH]1	108	98	72	-4
17	Cn1cnc(S(=O)(=O)N=S(C)(=O)c2ccc(Cl)cc2)c1 (stereo not given)	100	104	91	-2
18	Cc1ccc(CNC(=O)CCn2cnc3onc(-c4cccc(F)c4)c3c2=O)cc1	x	110	x	-6
19	CN(C)CCSc1nc2ccccc2[nH]1	102	100	95	x
20	O=C(O)CSc1nc2c(cnn2CCO)c(=O)[nH]1	x	98	x	-26
21	CCC(=O)Nc1cc(C(=O)NCC2CCCN2CC)c(OC)cc1N(C)C (stereo not given)	99	106	89	-7
22	CCC(=O)Nc1ccccc1-c1nnc(SC(C)C(=O)Nc2ccccc2)[nH]c1=O (stereo not given)	x	101	x	-8
23	Oc1ccccc1-c1nc(/C=C/c2ccccc2Cl)nn1-c1ccccc1	82	106	81	-3
24	COc1ccc(OC)c(NC(=O)Nc2ccc3[nH]c(=O)oc3c2)c1	x	103	x	-10
25	Cc1ccc(/C=C/C(=O)NCCc2c[nH]c3ccccc23)o1	95	x	84	-37
26	O=C1c2ccccc2C(=O)N1CSC1=NCCS1	114	100	88	-71
27	COc1ccc(NC(=O)OCC(C)C)cc1OC	103	102	93	-2
28	COCCCN1CCn2c(nc3ccccc32)C1	x	97	x	-22
29	CC(OC(=O)C(C)N1C(=O)c2ccccc2C1=O)C(=O)c1ccccc1 (stereo not given)	113	101	94	-18
30	O=C(Nc1ncnc2sccc12)c1cccs1	60	102	13	-21
31	CC1CC(C)CN(S(=O)(=O)c2ccc(-n3cccn3)cc2)C1 (stereo not given)	97	101	98	x
32	Cc1ccc(NC(=O)c2sc3nc(-c4ccccc4)cn3c2C)c(C)c1	x	102	x	-18
33	CC(C)c1nc2ccc(C(=O)NCc3ccc(N(C)C)cc3)cc2o1	95	102	90	x
34	CCc1c(C)sc(NC(=O)c2cc(C)on2)c1C#N	109	102	100	0
35	Cc1cc(C)cc(N2C(=O)CS(=O)(=O)C2c2cccc([N+](=O)[O-])c2)c1 (stereo not given)	x	100	x	-21
36	Nn1c(Cn2ccnc2)nnc1Cn1ccnc1	105	x	85	-7
37	CC(C)COC(=O)Cc1c(O)c2ccccc2[nH]c1=O	108	106	82	-13
38	COc1cc(S(=O)(=O)NCCc2c(C)[nH]c3ccc(C)cc23)ccc1Br	127	106	91	x
39	C=CCNC(=O)c1ccc(Cl)c(Cl)c1	101	107	83	-10
40	N#Cc1cccc(CSc2nccc(=O)[nH]2)c1	115	103	79	-9
41	Cc1ccc(C)c(S(=O)(=O)c2nnn3c2nc(Nc2ccc(C)c(C)c2)c2ccccc23)c1	93	95	100	6
42	O=C(NCc1ccccc1Br)c1ccc2c(c1)nc1n2CCOC1	74	97	88	x
43	CC1N(C)c2cc(CN3C(=O)c4ccccc4C3=O)ccc2C1(C)C (stereo not given)	107	x	91	-19
44	O=C(Nc1nccs1)c1ccc2c(=O)n3c(nc2c1)CCCCC3	82	x	68	-23
45	O=C(Nc1ccccc1Cl)c1ccc(F)c(S(=O)(=O)NCc2ccc(Cl)c(Cl)c2)c1	94	101	94	x
46	CCCc1nnc2n1NC(c1ccc(C)cc1)C(C(=O)Nc1cc(C)cc(C)c1)S2 (stereo not given)	x	105	x	-8
47	c1ccc2c(c1)ncc1nncn12	95	102	84	-17
48	CN(C)C(=O)c1ccccc1NC(=O)Nc1ccccc1	100	103	95	-21
49	CNC(=O)Cn1ncc2c3ccccc3n(Cc3cc(C)ccc3C)c2c1=O	100	114	64	x
50	O=C(CSc1nc2c(c(=O)n1-c1ccccc1)SCC2)Nc1nccs1	99	108	91	-9
51	O=C(c1ccccc1)N(c1ccc2oc3c(c2c1)CCCC3)S(=O)(=O)c1ccccc1	90	104	86	x
52	CN(C)c1nc(N(C)C)n(-c2ccccc2)n1	x	100	x	-11
53	O=C(c1ccc2c(c1)N(Cc1ccccc1)C(=O)c1ccccc1S2=O)N1CCOCC1 (stereo not given)	102	107	90	-2
54	CC12CN3CC(C)(CN(C1)C3c1cc(Br)ccc1O)C2O (stereo not given)	x	97	x	-10
55	Cc1ccc(S(=O)(=O)Cc2nc(-c3ccc(C(=O)NCC4CCCO4)cc3)oc2C)cc1 (stereo not given)	x	110	x	-2
56	CC1Cc2cc(C(=O)COC(=O)c3n[nH]c(=O)c4ccccc34)ccc2N1S(C)(=O)=O (stereo not given)	82	x	97	-16
57	Cn1ccnc1SC(C(=O)Nc1ccccc1)C(=O)Nc1ccccc1	95	105	86	4
58	CCOc1ccc(-n2c(-c3ccccc3)c[n+]3c2CCC3)cc1	106	108	89	x
59	COc1ccc(NC(=O)C2CCN(S(=O)(=O)c3cc(-c4noc(C)n4)ccc3C)CC2)cc1Cl	x	100	x	-29
60	COc1ccc(S(=O)(=O)NCCSCc2cccs2)cc1	90	103	89	-31

Later entries
cpd	Structure	Sa growth 42C	GIV-Gai inh	Sa growth 42C second temp	HCMV UL50-53 inh
61	COc1ccc(C(C)N)cc1Br (stereo not given)	88	x	92	-14
62	Cc1noc(C)c1CCNC(=O)CCCn1nc(C)c2nn(-c3ccccc3)c(-n3cccc3)c2c1=O	x	99	x	-25
63	Cc1ccc(S(=O)(=O)n2nc(-c3ccc(Cl)cc3)nc2NCc2ccc(F)cc2)cc1	109	101	88	-9
64	COc1cccc(CNC(=O)C(=O)NCC(c2ccc3c(c2)OCO3)N2CCOCC2)c1 (stereo not given)	93	97	90	x
65	Cc1oc(-c2ccc(C(=O)NCCN3CCCC3)cc2)nc1CSc1ccc(Cl)cc1	110	105	59	x
66	COC(=O)c1oc2ccc(OC)cc2c1NC(=O)CCCN1C(=O)c2ccccc2C1=O	80	101	88	-1
67	N#C/C(=C\c1cn(CCC(N)=O)c2ccccc12)Sc1nc2ccccc2s1	101	107	62	-13
68	COC(CNC(=O)c1cc(S(=O)(=O)N2CC(C)CC(C)C2)ccc1F)OC (stereo not given)	102	98	84	x
69	O=C(c1cc(-c2cccc(Cl)c2)on1)N1CCOCC1	x	105	x	25
70	Nc1nc2ccccc2[nH]1	75	x	90	-38
71	COc1ccccc1-c1noc(-c2ccc(N3CCC(C)CC3)c([N+](=O)[O-])c2)n1	102	95	88	5
72	CN(C)c1ccc(-c2nc3cc(NC(=O)c4ccc(Cl)c([N+](=O)[O-])c4)ccc3o2)cc1	x	101	x	-33
73	Fc1ccc(-n2ncc3c(Nc4ccc5c(c4)OCCO5)ncnc32)cc1	105	99	91	x
74	CN(C)C=NC(=O)c1cc2c(n(-c3ccccc3)c1=O)CC(C)(C)CC2=O	94	102	95	-6
75	O=C(c1ccc2cn[nH]c2c1)N1CCCC1	99	106	91	-14
76	CN(CC(=O)N1CCc2ccccc21)S(=O)(=O)c1ccc2nc(-c3ccccc3)[nH]c2c1	113	102	66	x
77	CCOC(=O)c1ccc(N2C(=O)c3[nH]nc(-c4ccccc4)c3C2c2ccc(CC)cc2)cc1 (stereo not given)	101	105	91	-14
78	O=C(c1ccc2nc(/C=C(\O)c3ccc(Cl)cc3)c(=O)[nH]c2c1)N1CCOCC1	75	68*	81	-95
79	O=C(Nc1ccc2c(c1)OCO2)C1CCN(c2cc(-c3ccccc3)ncn2)CC1	x	110	x	6
80	CCCOc1ccc(NC(=O)CC2C(=O)N(CC)C(=S)N2CCNC(C)=O)cc1 (stereo not given)	98	97	93	-2
81	O=C(O)CC(Cn1cnnn1)c1ccccc1 (stereo not given)	104	94	84	-10
82	O=C(NCC(c1ccc2c(c1)OCO2)N1CCOCC1)C(=O)Nc1ccccc1 (stereo not given)	105	98	88	x
83	CC(=O)N1CCCc2ccc(NS(=O)(=O)c3ccc(F)cc3F)cc21	88	107	92	x
84	Cc1ccc(Sc2c(N)n(C)c(=O)[nH]c2=O)cc1	84	x	84	-11
85	COc1ccc(CNC(=O)c2ccc3nc(CCc4ccccc4)oc3c2)cc1OC	104	100	93	x

Six entries from above, arranged by formula weight, largest number first:
cpd	Structure	Sa growth 42C	GIV-Gai inh	Sa growth 42C second temp	HCMV UL50-53 inh
76	CN(CC(=O)N1CCc2ccccc21)S(=O)(=O)c1ccc2nc(-c3ccccc3)[nH]c2c1	113	102	66	x
85	COc1ccc(CNC(=O)c2ccc3nc(CCc4ccccc4)oc3c2)cc1OC	104	100	93	x
79	O=C(Nc1ccc2c(c1)OCO2)C1CCN(c2cc(-c3ccccc3)ncn2)CC1	x	110	x	6
82	O=C(NCC(c1ccc2c(c1)OCO2)N1CCOCC1)C(=O)Nc1ccccc1 (stereo not given)	105	98	88	x
83	CC(=O)N1CCCc2ccc(NS(=O)(=O)c3ccc(F)cc3F)cc21	88	107	92	x
84	Cc1ccc(Sc2c(N)n(C)c(=O)[nH]c2=O)cc1	84	x	84	-11

Reprinted at random: six records from the list
cpd	Structure	Sa growth 42C	GIV-Gai inh	Sa growth 42C second temp	HCMV UL50-53 inh
42	O=C(NCc1ccccc1Br)c1ccc2c(c1)nc1n2CCOC1	74	97	88	x
40	N#Cc1cccc(CSc2nccc(=O)[nH]2)c1	115	103	79	-9
2	CCS(=O)(=O)c1nc(S(=O)(=O)c2ccc(C)cc2)c(NCCCOC)s1	107	102	92	-7
68	COC(CNC(=O)c1cc(S(=O)(=O)N2CC(C)CC(C)C2)ccc1F)OC (stereo not given)	102	98	84	x
29	CC(OC(=O)C(C)N1C(=O)c2ccccc2C1=O)C(=O)c1ccccc1 (stereo not given)	113	101	94	-18
33	CC(C)c1nc2ccc(C(=O)NCc3ccc(N(C)C)cc3)cc2o1	95	102	90	x

Bioassay records as filed in PubChem.
